Autofluor counter – compound fluorescence in toxin protease inhibitor counterscreen | compound autofluorescence counterscreen, microsphere flow cytometry; active compounds read high | fluorescence intensity (test concentration not listed) | actives 3.1% (n = 360,000) | AID 624483;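 active = at least 3 SD above the mean of all compounds, about 16000 in these data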;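 also: 100 nL of 1 mM stock went into each well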
PrP UTR inh – inhibition of PrP 5' UTR reporter expression | inhibition, % (test concentration not listed) | cell-based PrP 5' UTR mRNA reporter, plate reader | actives 0.35% (n = 340,000);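 active = every replicate at 50% or more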;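 also: 0 = median of the neutral control wells; tested in H4 reporter cells; numbers are from one replicate; inactives centre near -14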
RN4220 kill – growth inhibition of S. aureus RN4220, primary screen, OD600 | 16 h | inhibition, % (concentration not given with the values) | actives 0.33% (n = 330,000) | AID 1259311, 2017;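 active = z-score of -3 or lower and OD600 up to 0.18 on both plates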;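 also: plate controls were untreated cells for no effect and reference antibiotic for full effect; stock transfer was 100 nL into about 80 µL; one replicate is shown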
BJeLR lethal – MLPCN primary cell-based screen for lethality selective to Ras in HRASV12 cells; BJeLR (HRASV12) viability, CellTiter-Glo ATP luminescence, 48 h; reference of the scale not given here; inhibition, % (concentration not given with the values); actives 0.17% (n = 300,000); AID 1554, 2009;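 active = replicate mean above 50%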;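 also: 50 nL library stock added to about 25 µL; numbers are from one replicate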
ugtP null kill – growth inhibition of ugtP-null S. aureus, primary screen, RN4220 ugtP deletion, OD600; 16 h; some inactives read as strong as hits; growth inhibition, % (test concentration not listed); actives 0.54% (n = 330,000); AID 1259309, 2017;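 active = z-score under -3 and OD600 up to 0.15 on both plates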;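 also: plate controls were untreated wells for no effect and antibiotic for full effect; wells of about 80 µL received 100 nL stock; the first replicate is given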
Mtb hypoxia inh – PubChem AID 1159583. actives 0.1% (n = 300,000). fluorescence inhibition, % (concentration not given with the values). M. tuberculosis hypoxia-regulated fluorescent reporter, fluorescence;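 active = 35 to 45% if threefold the growth effect, above 45% if 1.5-fold the growth effect; inactive = the rest, general growth blockers included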;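 also: wells of about 50 µL received 100 nL stock; 0% = vehicle wells and 100% = reference inhibitor wells; whole bacteria with a GFP reporter of the hypoxia response; strong numbers were not always called active; many hits fall short of the cut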
Mtb hypoxia inh growth – further read-out of Mtb hypoxia inh, marked with its call; growth inhibition, %; measured here: M. tuberculosis growth (absorbance);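 0% = vehicle and 100% = reference antibiotic; read after six days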
Active calls of the source: *. Not a hit list; 4.1% or so of the library scored in one or more.

Start of the listing, in advance:
`O=C(c1ccccc1F)N(Cc1cccs1)C1CCS(=O)(=O)C1` (configuration not stated) gave Autofluor counter 6039, PrP UTR inh -2, RN4220 kill 4.0, BJeLR lethal 6, ugtP null kill 4, Mtb hypoxia inh 11 and Mtb hypoxia inh growth 3.
For CN(C(=O)/C=C/c1ccccc1)C1CCS(=O)(=O)C1 (configuration not stated) the results were Autofluor counter 7312, PrP UTR inh -13, RN4220 kill 3.5, BJeLR lethal 0, ugtP null kill 10, Mtb hypoxia inh 13 and Mtb hypoxia inh growth 4.
CN1CCc2c(C#N)c(Cl)nc(Cl)c2C1 was read as Autofluor counter 2054, PrP UTR inh -8, RN4220 kill 0.4, BJeLR lethal 0, ugtP null kill -1, Mtb hypoxia inh 15 and Mtb hypoxia inh growth 13.
Screening Cc1occc1C(=O)NCc1ccccn1 returned Autofluor counter 3493, PrP UTR inh -5, RN4220 kill 0.4, BJeLR lethal -1, ugtP null kill -2, Mtb hypoxia inh 5 and Mtb hypoxia inh growth 4.
For Cc1[nH]n(-c2ccc([N+](=O)[O-])cc2)c(=O)c1C=NCCN1CCN(C(=O)c2ccccc2F)CC1 the results were Autofluor counter 3774, PrP UTR inh -8, RN4220 kill 2.2, BJeLR lethal 14, ugtP null kill -1, Mtb hypoxia inh 15 and Mtb hypoxia inh growth 13.
`COc1cc(NC(=O)COc2cccc(OC)c2)cc(OC)c1` gave Autofluor counter 11198, PrP UTR inh 2, RN4220 kill 1.1, BJeLR lethal -10, ugtP null kill -2, Mtb hypoxia inh 6 and Mtb hypoxia inh growth 10.
CN1CCN(c2nc3ccccn3c(=O)c2C=C(C#N)C#N)CC1 was read as Autofluor counter 3054, PrP UTR inh -16, RN4220 kill 5.8, BJeLR lethal -4, ugtP null kill 13, Mtb hypoxia inh 10 and Mtb hypoxia inh growth -2.

This part in full, from the first entry:
`O=C(c1ccccc1F)N(Cc1cccs1)C1CCS(=O)(=O)C1` (configuration not stated) gave Autofluor counter 6039, PrP UTR inh -2, RN4220 kill 4.0, BJeLR lethal 6, ugtP null kill 4, Mtb hypoxia inh 11 and Mtb hypoxia inh growth 3.
For CN(C(=O)/C=C/c1ccccc1)C1CCS(=O)(=O)C1 (configuration not stated) the results were Autofluor counter 7312, PrP UTR inh -13, RN4220 kill 3.5, BJeLR lethal 0, ugtP null kill 10, Mtb hypoxia inh 13 and Mtb hypoxia inh growth 4.
CN1CCc2c(C#N)c(Cl)nc(Cl)c2C1 was read as Autofluor counter 2054, PrP UTR inh -8, RN4220 kill 0.4, BJeLR lethal 0, ugtP null kill -1, Mtb hypoxia inh 15 and Mtb hypoxia inh growth 13.
Screening Cc1occc1C(=O)NCc1ccccn1 returned Autofluor counter 3493, PrP UTR inh -5, RN4220 kill 0.4, BJeLR lethal -1, ugtP null kill -2, Mtb hypoxia inh 5 and Mtb hypoxia inh growth 4.
For Cc1[nH]n(-c2ccc([N+](=O)[O-])cc2)c(=O)c1C=NCCN1CCN(C(=O)c2ccccc2F)CC1 the results were Autofluor counter 3774, PrP UTR inh -8, RN4220 kill 2.2, BJeLR lethal 14, ugtP null kill -1, Mtb hypoxia inh 15 and Mtb hypoxia inh growth 13.
`COc1cc(NC(=O)COc2cccc(OC)c2)cc(OC)c1` gave Autofluor counter 11198, PrP UTR inh 2, RN4220 kill 1.1, BJeLR lethal -10, ugtP null kill -2, Mtb hypoxia inh 6 and Mtb hypoxia inh growth 10.
CN1CCN(c2nc3ccccn3c(=O)c2C=C(C#N)C#N)CC1 was read as Autofluor counter 3054, PrP UTR inh -16, RN4220 kill 5.8, BJeLR lethal -4, ugtP null kill 13, Mtb hypoxia inh 10 and Mtb hypoxia inh growth -2.
Screening COc1ccc(NC(=O)C(CC(C)C)NC(=O)C2CCC(C)CC2)c(OC)c1 (configuration not stated) returned Autofluor counter 4202, PrP UTR inh -14, RN4220 kill -0.5, BJeLR lethal 8, ugtP null kill -5, Mtb hypoxia inh -4 and Mtb hypoxia inh growth 1.
For O=C(N[C@@H](Cc1c[nH]c2ccccc12)C(=O)O)C1CCN(S(=O)(=O)c2ccc(Cl)cc2)CC1 the results were Autofluor counter 5259, PrP UTR inh -21, RN4220 kill 3.6, BJeLR lethal -4, ugtP null kill 8, Mtb hypoxia inh -4 and Mtb hypoxia inh growth 2.
For O=C(Nc1ccc(N2CCOCC2)cc1N1CCOCC1)c1cccc([N+](=O)[O-])c1 the results were Autofluor counter 6648, PrP UTR inh 1, RN4220 kill 0.9, BJeLR lethal -2, ugtP null kill 5, Mtb hypoxia inh 6 and Mtb hypoxia inh growth 15.
CCN(CC)S(=O)(=O)c1ccc(N2CCOCC2)c(NC(=O)c2cccc3ccccc23)c1 was read as Autofluor counter 7472, PrP UTR inh -8, RN4220 kill 11, BJeLR lethal -12, ugtP null kill 2, Mtb hypoxia inh 8 and Mtb hypoxia inh growth 5.
`O=C(NCC1OCCc2ccccc21)c1ccc(NC(=O)c2ccccc2Cl)cc1` (configuration not stated) gave Autofluor counter 2665, PrP UTR inh -18, RN4220 kill -3.4, BJeLR lethal 19, ugtP null kill -1, Mtb hypoxia inh 0 and Mtb hypoxia inh growth -3.
Screening CCOc1ccc2[nH]c3c(NCCN(C)C)ncnc3c2c1 returned Autofluor counter 3731, PrP UTR inh -15, RN4220 kill 2.8, BJeLR lethal 1, ugtP null kill 4, Mtb hypoxia inh 10 and Mtb hypoxia inh growth 6.
O=C(NC(=S)NC1C2CC3CC(C2)CC1C3)c1ccccc1 (configuration not stated) was read as Autofluor counter 5884, PrP UTR inh -8, RN4220 kill -2.0, BJeLR lethal -2, ugtP null kill 15, Mtb hypoxia inh 6 and Mtb hypoxia inh growth 14.
Cc1c(C(=O)NCCS(=O)(=O)N2CCN(c3ccccc3F)CC2)cccc1[N+](=O)[O-] was read as Autofluor counter 4548, PrP UTR inh -4, RN4220 kill -1.1, BJeLR lethal 3, ugtP null kill 6, Mtb hypoxia inh 12 and Mtb hypoxia inh growth 9.
`COc1ccc(C2C=CCN(C(=O)C3CCCC3)CC(=O)N2Cc2ccc(F)cc2)cc1` (configuration not stated) gave RN4220 kill 6.3, ugtP null kill -6, Mtb hypoxia inh 10 and Mtb hypoxia inh growth 5.
Screening O=C(COc1cc(Cl)ccc1Cl)N1CCNC1=O returned Autofluor counter 6432, PrP UTR inh -9, RN4220 kill -0.2, ugtP null kill 1, Mtb hypoxia inh -6 and Mtb hypoxia inh growth 1.
Screening C#CCNc1c2c(nc3ncnn13)CC(C)CC2 (configuration not stated) returned Autofluor counter 4525, PrP UTR inh -6, RN4220 kill 2.4, BJeLR lethal 11, ugtP null kill 9, Mtb hypoxia inh 2 and Mtb hypoxia inh growth 17.
O=C(c1ccc(F)cc1)N1CCC2(CC1)NCCc1[nH]cnc12 was read as Autofluor counter 5359, PrP UTR inh -5, RN4220 kill 1.5, BJeLR lethal 2, ugtP null kill 4, Mtb hypoxia inh -6 and Mtb hypoxia inh growth 2.
CC(=O)Cc1nsc(NC(=O)c2oc(-c3ccccc3Cl)cc2C)n1 was read as Autofluor counter 3923, PrP UTR inh -7, RN4220 kill 2.3, BJeLR lethal 5, ugtP null kill 5, Mtb hypoxia inh 1 and Mtb hypoxia inh growth -1.
`CC(C)Cc1ccc(C(C)C(=O)Nc2nccs2)cc1` (configuration not stated) gave Autofluor counter 8484, PrP UTR inh -22, RN4220 kill 22, BJeLR lethal -11, ugtP null kill 8, Mtb hypoxia inh 3 and Mtb hypoxia inh growth 11.
`Nc1cc(N)nc(SCC(=O)N2CCc3ccccc32)n1` gave Autofluor counter 4690, PrP UTR inh -57, RN4220 kill -17, BJeLR lethal -1, ugtP null kill -7, Mtb hypoxia inh 12 and Mtb hypoxia inh growth 13.
For Cc1cc(C)cc(NC(=O)C2CCN(S(=O)(=O)c3c(C)n[nH]c3C)CC2)c1 the results were Autofluor counter 2310, PrP UTR inh -14, RN4220 kill 2.1, BJeLR lethal -1 and ugtP null kill -4.
Screening O=C(N/N=C/c1ccc([N+](=O)[O-])cc1)c1ccccc1OCc1ccccc1 returned Autofluor counter 4263, PrP UTR inh -15 and BJeLR lethal 10.
`Cn1cc(CCCC(=O)NCc2ccccc2)c2ccccc21` gave Autofluor counter 4323, PrP UTR inh -6, RN4220 kill 2.1, BJeLR lethal -7, ugtP null kill -3, Mtb hypoxia inh 3 and Mtb hypoxia inh growth -4.
`FC(F)(F)c1ccc(CN2CC3C(c4ccccc4)C4(c5ccccc5)CC3(C4)C2c2ccccc2)cc1` (configuration not stated) gave RN4220 kill -1.4, ugtP null kill -2, Mtb hypoxia inh 2 and Mtb hypoxia inh growth -2.
Screening COc1ccc(C2C(C(C)=O)=C(O)C(=O)N2c2nccs2)c(OC)c1 (configuration not stated) returned Autofluor counter 2203, PrP UTR inh -11, RN4220 kill 6.9, BJeLR lethal 9, ugtP null kill -7, Mtb hypoxia inh 7 and Mtb hypoxia inh growth 2.
CC1Cc2ccccc2N1C(=O)CN1C(=O)C(=O)N(Cc2ccccc2)C1=O (configuration not stated) was read as Autofluor counter 2292, PrP UTR inh -27, RN4220 kill 5.2, BJeLR lethal 1 and ugtP null kill 14.
CCC(C)Nc1nc2ccccc2n2c(C)nnc12 (configuration not stated) was read as Autofluor counter 3605, PrP UTR inh -4, RN4220 kill 3.2, BJeLR lethal -3, ugtP null kill -4, Mtb hypoxia inh 4 and Mtb hypoxia inh growth 7.
`COC(C(=O)Nc1ccc(F)c(F)c1)c1ccccc1` (configuration not stated) gave Autofluor counter 4361, PrP UTR inh -1, RN4220 kill 5.4, BJeLR lethal -1, ugtP null kill -9, Mtb hypoxia inh 18 and Mtb hypoxia inh growth 13.
`O=C(NNC(=O)c1ccccc1C(=O)O)c1ccc(-c2ccccc2)cc1` gave RN4220 kill 5.9, BJeLR lethal 17, ugtP null kill -6, Mtb hypoxia inh 10 and Mtb hypoxia inh growth 8.
`CCOc1ccc(CN(C)CC(=O)Nc2ccc3c(c2)CCC3)cc1OC` gave Autofluor counter 4019, PrP UTR inh 1, RN4220 kill 0.5, BJeLR lethal 0, ugtP null kill -7, Mtb hypoxia inh -3 and Mtb hypoxia inh growth 8.
CN(C)S(=O)(=O)n1cnc(C2c3c(ncn3Cc3ccccc3)CC3COC(=O)C32)c1 (configuration not stated) was read as RN4220 kill 1.9, ugtP null kill -7, Mtb hypoxia inh 5 and Mtb hypoxia inh growth -6.
For O=C(NCCCCNC(=O)c1cccs1)c1cccs1 the results were Autofluor counter 6991, PrP UTR inh -11, RN4220 kill 1.8, BJeLR lethal 8, ugtP null kill 1, Mtb hypoxia inh -1 and Mtb hypoxia inh growth 0.
For CC1(C)COC(/C=C/c2cccc([N+](=O)[O-])c2)=N1 the results were Autofluor counter 4461, PrP UTR inh 1, RN4220 kill 11, BJeLR lethal -5, ugtP null kill 6, Mtb hypoxia inh 11 and Mtb hypoxia inh growth 14.
`CCNc1nc(NC(C)(C)C)nc(SC(C(C)=O)C(C)=O)n1` gave Autofluor counter 9791, PrP UTR inh -14, RN4220 kill 1.0, BJeLR lethal -3, ugtP null kill -5, Mtb hypoxia inh 5 and Mtb hypoxia inh growth 6.
COc1cccc(NC(=O)c2ccc(N3C(=O)C4CC=C(C)CC4C3=O)cc2)c1 (configuration not stated) was read as Autofluor counter 3043, PrP UTR inh -8, RN4220 kill 1.6, BJeLR lethal -3, ugtP null kill -2, Mtb hypoxia inh 2 and Mtb hypoxia inh growth 3.
COc1ccc(-c2csc(N3CCC(C(N)=O)CC3)n2)cc1 was read as Autofluor counter 3963, PrP UTR inh -30, RN4220 kill -4.4, ugtP null kill 0, Mtb hypoxia inh 6 and Mtb hypoxia inh growth 9.
NC(=O)COC(=O)CC12CC3CC(CC(C3)C1)C2 was read as Autofluor counter 4435, PrP UTR inh -15, RN4220 kill 8.2, BJeLR lethal -6, ugtP null kill 5, Mtb hypoxia inh 21 and Mtb hypoxia inh growth 15.
Screening O=C(CC1CCCC1)Nc1ccc(Br)cc1 returned Autofluor counter 3606, PrP UTR inh -66, RN4220 kill 0.2, BJeLR lethal 2, ugtP null kill 11, Mtb hypoxia inh 17 and Mtb hypoxia inh growth 19.
For Cn1c(SCC(=O)Nc2ccc(C(N)=O)cc2)nnc1-c1cccs1 the results were Autofluor counter 5795, PrP UTR inh -10, RN4220 kill 3.0, BJeLR lethal -3, ugtP null kill 0, Mtb hypoxia inh 2 and Mtb hypoxia inh growth 7.
